High-throughput results (PubChem)
MLL AF4-AF9 inh = inhibitors of human MLL-AF4/AF9 interaction; AlphaScreen, biotin-AF4 peptide binding to FLAG-AF9; inhibition, % at 10 µM; actives 0.47% (n = 350,000); AID 651704;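 active = every replicate reaching a set inhibition limit, whatever the replicate mean, cut at about 25% in these data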;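 also: 0% = plate neutral control median and 100% = total signal loss; the record names both 10 and 1 µM as test concentration; the first replicate is given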
Target sequence (P42568 whole entry, looked up): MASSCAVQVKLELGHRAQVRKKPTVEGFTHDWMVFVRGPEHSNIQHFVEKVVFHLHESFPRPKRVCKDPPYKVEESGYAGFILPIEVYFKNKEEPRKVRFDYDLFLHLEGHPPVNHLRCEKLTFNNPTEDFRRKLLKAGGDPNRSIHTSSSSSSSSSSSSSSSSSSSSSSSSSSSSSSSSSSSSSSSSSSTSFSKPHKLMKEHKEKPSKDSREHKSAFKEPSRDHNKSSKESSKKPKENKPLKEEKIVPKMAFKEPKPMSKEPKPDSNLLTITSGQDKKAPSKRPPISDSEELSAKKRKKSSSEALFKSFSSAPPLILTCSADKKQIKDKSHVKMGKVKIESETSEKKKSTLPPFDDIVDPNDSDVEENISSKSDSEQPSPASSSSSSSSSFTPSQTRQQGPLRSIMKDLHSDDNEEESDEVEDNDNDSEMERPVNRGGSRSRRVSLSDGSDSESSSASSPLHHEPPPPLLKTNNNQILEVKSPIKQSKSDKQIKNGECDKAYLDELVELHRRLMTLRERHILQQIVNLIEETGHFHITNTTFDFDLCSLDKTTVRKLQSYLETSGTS
Active calls of the source: *. Some of the compounds tested; the hit share may differ from the screen's.

SMILES | MLL AF4-AF9 inh
C[C@@H]1CN([C@@H](C)CO)C(=O)c2cc(NC(=O)c3ccncc3)ccc2O[C@@H]1CN(C)CC1CCCCC1 | -1.6
COc1ccc(S(=O)(=O)Nc2cccc3c2O[C@@H](CN(C)C(=O)NC(C)C)[C@H](C)CN([C@H](C)CO)C3=O)cc1 | 3.5
CCc1cnc(N2[C@H](C#N)[C@@H](c3ccc(C#CC(C)C)cc3)[C@H]2CO)s1 | 3.5
COCC(=O)N(C)C[C@H]1Oc2cc(-c3ccc(OC)cc3)ccc2S(=O)(=O)N([C@H](C)CO)C[C@H]1C | -0.1
COc1ccc(S(=O)(=O)N[C@H]2CC[C@@H](CCn3cc(-c4cccc(F)c4)nn3)O[C@H]2CO)cc1 | -1.0
C/C=C/c1ccc2c(c1)O[C@@H](CN(C)CCC)[C@@H](C)CN([C@H](C)CO)S2(=O)=O | 13.3
CN(CCc1ccccc1)C(C(=O)Nc1ccc2c(c1)OCCO2)C1CC1 (stereo not given) | -0.3
C[C@@H]1CN([C@@H](C)CO)C(=O)c2cc(NS(=O)(=O)c3ccc(F)cc3)ccc2O[C@H]1CN(C)CC1CC1 | -2.8
CC1(C)CC(Cc2ccc(C(F)(F)F)cn2)N(C(=O)OC(C)(C)C)C1 (stereo not given) | -0.5
COc1ccccc1-c1ccc2c(c1)O[C@@H](CN(C)C)[C@@H](C)CN([C@@H](C)CO)S2(=O)=O | -2.7
COCC(=O)Nc1ccc2c(c1)C(=O)N(C)C[C@H](OC)[C@@H](C)CN(C(=O)CC1CC1)[C@H](C)CO2 | -3.0
C[C@H]1CN([C@@H](C)CO)C(=O)c2cc(NC(=O)C3CCCCC3)ccc2O[C@@H]1CN(C)C(=O)Nc1ccc2c(c1)OCO2 | 0.5
C[C@@H]1CN([C@@H](C)CO)C(=O)Cc2cc(NC(=O)Cn3cnnn3)ccc2O[C@@H]1CN(C)Cc1ccc(-c2ccccc2)cc1 | 3.2
C[C@@H]1CN([C@@H](C)CO)C(=O)c2cc(NC(=O)Cc3cn(C)c4ccccc34)ccc2O[C@@H]1CN(C)S(=O)(=O)c1ccc(F)cc1 | -2.1
COc1ccc(NC(=O)N(C)C[C@@H]2Oc3ccc(NC(=O)NC4CCCCC4)cc3C(=O)N([C@@H](C)CO)C[C@H]2C)cc1 | 5.0
C[C@H](CO)N1C[C@H](C)[C@@H](CN(C)Cc2ccccc2)Oc2ccc(NC(=O)Cc3ccccc3)cc2C1=O | -2.0
C[C@@H]1CN([C@H](C)CO)C(=O)c2cccc(NC(=O)C3CC3)c2O[C@@H]1CN(C)Cc1ccc2c(c1)OCO2 | -1.5
COCC1=C([C@H](O)c2ccccc2)[C@H](CO)[C@@H]2C(=O)N(Cc3ccccc3)C(=O)[C@@H]2C1 | -0.2
CCN1CCN(c2ccc(N3CCN(S(=O)(=O)c4cccc([N+](=O)[O-])c4)CC3)nn2)CC1 | 1.8
CN1C(=O)c2cc(NC(=O)c3ccc(F)c(F)c3)ccc2OC[C@@H]2O[C@@H](CC(=O)N[C@H]3CCN(Cc4ccccc4)C3)CC[C@H]21 | 8.1
CO[C@@H]1CN(C)C(=O)c2cc(NC(C)=O)ccc2OC[C@@H](C)NC[C@@H]1C | -0.7
CCCN(C)C[C@H]1OCCCC[C@H](C)Oc2ccc(NS(=O)(=O)c3ccc(Cl)cc3)cc2C(=O)N([C@@H](C)CO)C[C@H]1C | -5.3
CCS(=O)(=O)N1CC2(CN(Cc3ccc4c(c3)OCO4)[C@H](CO)c3c2c2ccc(OC)cc2n3C)C1 | -0.7
C[C@H](NC(=O)C[C@@H]1CC[C@@H]2[C@H](COC[C@@H](O)CN2Cc2cc(F)ccc2F)O1)c1ccccc1 | 2.3
COc1ccc(NC(=O)N(C)C[C@H]2Oc3ncc(C#C[C@@H](C)O)cc3C(=O)N([C@@H](C)CO)C[C@H]2C)cc1 | -2.0
Cc1noc(C)c1NC(=O)N(C)C[C@@H]1OCCCC[C@H](C)Oc2ccc(NC(=O)c3ccncc3)cc2C(=O)N([C@@H](C)CO)C[C@H]1C | -2.2
COc1ccccc1NC(=O)N1CC(=O)N2[C@H](CO)[C@H](c3ccc(-c4cccc(C)c4)cc3)[C@@H]2C1 | 1.9
O=C(C1CCCC1)N1CC(=O)N2[C@@H](CO)[C@@H](c3ccc(-c4ccccc4F)cc3)[C@@H]2C1 | -0.6
CCCC#Cc1cnc2c(c1)C(=O)N([C@@H](C)CO)C[C@H](C)[C@@H](CN(C)C(=O)c1cccnc1)O2 | -1.5
CCCCOCCCNC(=O)C[C@H]1C[C@@]2(C(=O)OC)C(=C[C@H](C3CCCC3)O[C@@H]2C)N(Cc2ccccc2)C1=O | 1.4
O=C(c1ccc2c(c1)OCO2)N1CC(=O)N2[C@@H](CO)[C@@H](c3ccc(C#Cc4ccccc4)cc3)[C@@H]2C1 | -9.5
C#CCOCCOCCOCCNc1nc(N2CCN(C(=O)[C@H](CCCCN)n3cc(CCC(=O)O)nn3)CC2)nc(N2CCN(C(=O)[C@H](Cc3ccc(O)cc3)n3cc(CCO)nn3)CC2)n1 | -2.0
C[C@@H]1CCCCO[C@@H](CN(C)C(=O)Nc2ccc3c(c2)OCO3)[C@@H](C)CN([C@H](C)CO)C(=O)c2cc(NC(=O)Nc3cccc4ccccc34)ccc2O1 | -4.8
C[C@@H]1CCCCO[C@@H](CN(C)C)[C@H](C)CN([C@@H](C)CO)C(=O)c2cc(NS(=O)(=O)c3cn(C)cn3)ccc2O1 | -8.4
C[C@H](CO)N1C[C@H](C)[C@H](CN(C)CC2CC2)Oc2ccc(NC(=O)CCCN(C)C)cc2C1=O | 3.0
COc1ccc(NC(=O)Nc2ccc3c(c2)C(=O)N([C@@H](C)CO)C[C@@H](C)[C@@H](CN(C)C(=O)NC(C)C)OCCCC[C@H](C)O3)cc1 | -1.4
O=C(C[C@@H]1CC[C@H]2[C@@H](COC[C@@H](O)CN2S(=O)(=O)c2cccc(Cl)c2)O1)Nc1ccccc1 | 3.2
C/C=C/c1ccc(C2[C@H]3CNC[C@@H]2N3C(=O)NC2CCCCC2)cc1 (stereo not given in full) | 3.3
COc1ccc(NC(=O)Nc2ccc3c(c2)CC(=O)N([C@H](C)CO)C[C@H](C)[C@H](CN(C)C(=O)Nc2ccc(OC)cc2)O3)cc1 | 1.5
C[C@H](CO)N1C[C@H](C)[C@@H](CN(C)C(=O)NC2CCCCC2)OCCCC[C@H](C)Oc2ccc(NC(=O)NC3CCCCC3)cc2C1=O | 0.6
C[C@H](CO)N1C[C@H](C)[C@H](CN(C)Cc2ccc(C(=O)O)cc2)Oc2ccc(NC(=O)Nc3ccc(F)cc3)cc2CC1=O | -1.4
O=C(N[C@@H]1CC[C@@H](CCNS(=O)(=O)c2ccccc2)O[C@H]1CO)c1cccc(F)c1 | -1.2
C[C@@H]1CN([C@H](C)CO)S(=O)(=O)c2ccc(-c3ccccc3)cc2O[C@@H]1CN(C)C(=O)c1ccc2c(c1)OCO2 | 2.7
CC(C)NC(=O)N(C)C[C@H]1Oc2ncc(C#Cc3ccncc3)cc2C(=O)N([C@@H](C)CO)C[C@@H]1C | -2.5
CC(C)CC#Cc1ccc([C@H]2[C@@H](CO)N3C(=O)CN(C(=O)Nc4ccc(F)cc4)C[C@H]23)cc1 | 2.5
CO[C@H]1CC[C@@H]2CCN(C)C(=O)[C@@H](C)CN(C)C(=O)c3cccc(C#N)c3OC[C@H]1O2 | -1.7
CC1(C(=O)Nc2ccc3c(c2)OCCO3)CN(S(C)(=O)=O)CC(=O)N1Cc1ccco1 (stereo not given) | 1.9
O=C(Cc1cccnc1)N1CC(=O)N2[C@H](CO)[C@@H](c3ccc(C#CC4CC4)cc3)[C@H]2C1 | 3.3
O=C(NCC1CC1)c1cc2c(c(-c3cccc(-c4ccccc4F)c3)n1)[C@@H](CCO)N(C(=O)CC1CC1)C2 | -7.1
CCc1nc2ccc(C(=O)NCc3ccccc3OC)cn2c1N(CC)Cc1cccc(Br)c1 | 2.5

Arranged by the number under MLL AF4-AF9 inh (descending): 3 from the list above
SMILES | MLL AF4-AF9 inh
C[C@H](CO)N1C[C@H](C)[C@H](CN(C)CC2CC2)Oc2ccc(NC(=O)CCCN(C)C)cc2C1=O | 3.0
CCc1nc2ccc(C(=O)NCc3ccccc3OC)cn2c1N(CC)Cc1cccc(Br)c1 | 2.5
C[C@@H]1CCCCO[C@@H](CN(C)C)[C@H](C)CN([C@@H](C)CO)C(=O)c2cc(NS(=O)(=O)c3cn(C)cn3)ccc2O1 | -8.4

The main list resumes, starting 2 compounds before the break.
SMILES | MLL AF4-AF9 inh
O=C(NCC1CC1)c1cc2c(c(-c3cccc(-c4ccccc4F)c3)n1)[C@@H](CCO)N(C(=O)CC1CC1)C2 | -7.1
CCc1nc2ccc(C(=O)NCc3ccccc3OC)cn2c1N(CC)Cc1cccc(Br)c1 | 2.5
C[C@@H]1CCCCO[C@@H](CN(C)Cc2ccc(C(F)(F)F)cc2)[C@@H](C)CN([C@H](C)CO)C(=O)c2cc(NS(=O)(=O)c3cccs3)ccc2O1 | -0.4
C[C@H](CO)N1C[C@H](C)[C@H](CN(C)Cc2ccc3c(c2)OCO3)Oc2ccc(NC(=O)Cn3cnnn3)cc2C1=O | 1.5
CCOC(=O)C1=C(C(=O)OCC)C2N(Cc3ccc(C(F)(F)F)cc3)c3ccccc3[C@@]23C[C@@H](C(=O)OC)N(S(=O)(=O)c2ccc(OC)cc2)C3=N1 (stereo not given in full) | -1.1
Cc1ccc([C@H]2C[C@@H](O)[C@H](n3cc(COC(=O)c4ccccc4)nn3)CN2C(=O)C2CCCCC2)cc1 | -0.1
C[C@@H]1CN([C@H](C)CO)S(=O)(=O)c2ccc(-c3ccc(F)cc3)cc2O[C@H]1CN(C)C | 2.0
C[C@@H]1CN([C@@H](C)CO)C(=O)Cc2cc(NC(=O)c3ccncc3)ccc2O[C@H]1CN(C)CC1CCCCC1 | 6.4
C[C@@H]1CN([C@H](C)CO)C(=O)Cc2cc(NC(=O)Cn3cnnn3)ccc2O[C@@H]1CN(C)CC1CC1 | -0.6
CNC[C@@H]1Oc2ccc(NC(=O)Nc3ccc(F)cc3)cc2C(=O)N([C@@H](C)CO)C[C@H]1C | -0.6
COc1cccc(S(=O)(=O)N2CCCCN3[C@H](C2)[C@@H](c2ccc(C#CC4CC4)cc2)[C@@H]3CO)c1 | -0.9
O=C(Nc1ccc(F)cc1)N[C@H]1CC[C@@H](CC(=O)N2CCCCC2)O[C@@H]1CO | -12.2
CO[C@@H]1CN(C)C(=O)c2ccc(NC(=O)C3CCCC3)cc2OC[C@H](C)N(CCC(F)(F)F)C[C@H]1C | -0.5
CN1CCN(C(=O)C[C@H]2CC[C@H]3[C@@H](COC[C@H](O)CN3C(=O)Cc3ccccc3)O2)CC1 | 1.0
Cc1ccc(S(=O)(=O)N(C)C[C@@H]2Oc3ccc(NC(=O)Cn4cnnn4)cc3C(=O)N([C@H](C)CO)C[C@H]2C)cc1 | -0.5
C[C@@H]1CN([C@H](C)CO)C(=O)c2cc(NC(=O)C3CCCCC3)ccc2O[C@H]1CN(C)C(=O)Nc1ccccc1 | -11.3
CCCC(=O)Nc1ccc2c(c1)OC[C@@H](C)N(C(C)=O)C[C@H](C)[C@@H](OC)CN(C)C2=O | 0.0
Cc1ccc(S(=O)(=O)N[C@@H]2CC[C@H](CCNC(=O)CN3CCOCC3)O[C@@H]2CO)cc1 | -0.2
Cc1ccc(-c2ccc3c(c2)O[C@@H](CN(C)C(=O)Nc2ccc(C(F)(F)F)cc2)[C@H](C)CN([C@H](C)CO)S3(=O)=O)cc1 | 0.2
C[C@@H]1CN([C@H](C)CO)C(=O)c2cc(C3=CCCC3)cnc2O[C@H]1CN(C)Cc1ccc(C(=O)O)cc1 | -4.5
C[C@H]1CN([C@@H](C)CO)C(=O)c2cc(NC(=O)CCCCCC(=O)Nc3ccccc3N)ccc2O[C@H]1CN(C)C(=O)Nc1ccc(C(F)(F)F)cc1 | -2.0
CCC(=O)N(C)C[C@H]1Oc2cc(C#Cc3ccccc3)ccc2S(=O)(=O)N([C@H](C)CO)C[C@H]1C | -5.8
Cc1cccc(CN2CCN([C@@H]3CS(=O)(=O)N[C@H]3COCc3ccccc3)CC2)c1 | 3.1
C[C@@H]1CN([C@@H](C)CO)C(=O)c2cc(NC(=O)NC3CCCCC3)ccc2O[C@@H](C)CCCCO[C@H]1CN(C)S(=O)(=O)c1ccccc1 | -6.3
O=C(CC1CC1)Nc1ccc2c(c1)[C@H]1C[C@@H](CC(=O)N3CCCCC3)O[C@H](CO)[C@H]1O2 | 2.4
C/C=C/c1cnc2c(c1)C(=O)N([C@H](C)CO)C[C@H](C)[C@H](CN(C)C(=O)Nc1ccc(OC)cc1)O2 | -2.7
CCCC#Cc1ccc2c(c1)O[C@H](CN(C)C(=O)COC)[C@@H](C)CN([C@H](C)CO)S2(=O)=O | 0.2
C[C@H](NC(=O)C[C@@H]1C=C[C@H](NC(=O)C2CCOCC2)[C@@H](CO)O1)c1ccccc1 | -0.5
COc1ccc(S(=O)(=O)Nc2cccc3c2O[C@@H](CN(C)Cc2ccncc2)[C@H](C)CN([C@H](C)CO)C3=O)cc1 | 0.1
COC(=O)[C@]12CCCCC=C1N(CCc1ccc(OC)c(OC)c1)C(=O)[C@H](CC(=O)N1CCN(C(=O)C3CC3)CC1)C2 | 2.9
O=C(Cc1ccccn1)N[C@H]1CC[C@@H](CCNC(=O)c2cc(Cl)cc(Cl)c2)O[C@@H]1CO | 0.4

A few values from above.
MLL AF4-AF9 inh with COC(=O)[C@]12CCCCC=C1N(CCc1ccc(OC)c(OC)c1)C(=O)[C@H](CC(=O)N1CCN(C(=O)C3CC3)CC1)C2 → 2.9
MLL AF4-AF9 inh with COc1ccc(S(=O)(=O)Nc2cccc3c2O[C@@H](CN(C)Cc2ccncc2)[C@H](C)CN([C@H](C)CO)C3=O)cc1 → 0.1
MLL AF4-AF9 inh with C[C@H](NC(=O)C[C@@H]1C=C[C@H](NC(=O)C2CCOCC2)[C@@H](CO)O1)c1ccccc1 → -0.5
